# Source: PubChem BioAssay (PCMD)
# Calb biofilm kill – mixture kills Candida albicans biofilm cells. AID 1242. C. albicans biofilm persisters + clotrimazole, fluorescence viability; primary screen in compound mixtures of four per well. inhibition, % at 7.6 µM. actives 0.02% (n = 120,000);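 active means inhibition above 30.3% in the primary screen of four-compound pools, then above 30% when the compound was retested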;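 further: compounds exposed to preformed 24 h biofilms for 48 h; the number belongs to the whole pool; some results filed as inactive read as strong as hits; inactives centre near 12; 0% = biofilm with clotrimazole alone and 100% = kill control; retested singly at about 60 µM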
#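 Assay system: C. albicans biofilms / Medium: RPMI/MOPS medium, pH 7.0 / Schedule: biofilm formation 24 h, compound exposure 48 h, 37 °C / Measured by: Alamar Blue fluorescence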
# The depositor's hits bear a star. Some of the compounds tested, so the mix of outcomes need not match the whole.
SMILES | Calb biofilm kill
C=CCOc1ccc(/C=N/NC(=O)CN2CCOCC2)cc1OCC | 16.9
CN(C)C(=S)SCC(=O)Nc1cccc(C(F)(F)F)c1 | 7.8
Cc1c(Cl)c(C(F)(F)F)nn1CC(=O)NCc1ccccc1 | 16.0
O=c1cc(N2CCC3(CC2)OCCO3)[nH]c(=O)n1-c1ccc(Br)cc1 | 11.2
Cc1cccnc1N(C(=O)Nc1cccc(Cl)c1)C1=NCC(C)(C)S1 | 3.9
CCC12CC3CC(C1)CC(C(=O)NNC(N)=O)(C3)C2 | 16.0
O=C(CSc1ccccn1)Nc1ccc(N2CCOCC2)cc1 | 9.6
COc1ccc(N2C(=O)CC(NNc3ncc(Cl)cc3Cl)C2=O)cc1 (configuration not stated) | 19.5
CCCC1=C(C(=O)OCC)C(c2ccc(OC)c(C)c2OC)C(C#N)=C(N)O1 (configuration not stated) | 11.1
CCOc1ccc(C(C(=O)NC2CCCCC2)N(C(=O)c2ccccn2)c2cccnc2)cc1 (configuration not stated) | 12.0
O=C(/C=C/c1c[nH]c2ccccc12)c1ccccc1 | 8.1
ClCC1CSC(=NC23CC4CC(CC(C4)C2)C3)O1 (configuration not stated) | 6.6
Cc1ccc(OCCCNC2CCCC2)cc1 | 16.6
N#CCc1nc(-c2cc3ccccc3oc2=O)cs1 | 5.8
C/C(CC(=O)Nc1cccnc1)=N\NC(=O)C(=O)NC(C)C | 10.1
O=C(Cn1c(=S)[nH]c2ccccc21)c1ccccc1 | 14.9
CCOc1ccc(C(=O)NCCN2CCOCC2)cc1 | 17.6
CSc1nc(C=Nc2ccccc2Cl)c(O)n1Cc1cccc(Cl)c1 | 1.9
Cc1ccc(Cn2c(O)c(N=NC(=S)Nc3ccccc3F)c3cc(S(=O)(=O)N4CCOCC4)ccc32)cc1 | 20.8
CN1CCN(C(=O)C2=C[C@@H](c3ccc(Br)cc3)C[C@@H](OCc3ccc(CO)cc3)O2)CC1 | 18.8
Nc1nc(NC(=O)/C=C/c2ccc(F)cc2)nn1-c1ccccc1 | 16.9
CCOC(=O)c1sc(NC(=O)C(C)C)c(C#N)c1C | 2.3
O=C(N/N=C/c1cc([N+](=O)[O-])ccc1O)c1cc(-c2ccccc2)nc2ccccc12 | 17.0
CCOc1ccc(C(=O)Nc2ccc(-c3nc4ccccc4[nH]3)cc2)cc1[N+](=O)[O-] | 16.0
CCn1cnc2cc([N+](=O)[O-])ccc21 | 13.1
COCCCNC(=O)CCCn1c(=O)c2ccccc2n(CC(=O)Nc2c(C)cc(C)cc2C)c1=O | 2.2
Cc1ccc(C(=O)OCC(=O)Nc2ccccc2Sc2ccccc2)cc1C | 15.6
Nc1nc(SCC(=O)NNc2c(Cl)cc(Cl)cc2Cl)n[nH]1 | 3.6
COc1ccc([N+](=O)[O-])cc1NC(=O)C(C)OC(=O)c1cccnc1Cl (configuration not stated) | 7.0
COc1ccc(OCC(=O)N2CCN(C(=O)c3ccc([N+](=O)[O-])cc3)CC2)cc1 | 8.9
C=CC(=O)NCC1OCCc2ccccc21 (configuration not stated) | 8.6
CN1C(=O)/C(=C/c2ccccc2OCc2ccccc2)NC1=S | -3.4
Cc1cccc(CC(=O)NCCn2c(C)cc3ccccc32)c1 | 14.3
CCC(=O)Nc1ccc(Cl)c(NC(=O)c2c(OC)cccc2OC)c1 | -3.6
O=C(CN(Cc1ccco1)C(=O)CCC(=O)Nc1nccs1)NCc1ccccc1 | 7.2
COc1cc(/C=C2\SC(=S)N(C(C(=O)O)c3ccccc3)C2=O)ccc1O (configuration not stated) | 15.6
COc1cccc(/C=N/NC(=O)CNC(=O)c2ccc3c(c2)OCCO3)c1O | 15.1
Cc1ccc(NC(=O)COC(=O)CC2CCCC2)cc1Cl | 11.8
CC(=O)N(Cc1ccco1)Cc1cc2cccc(C)c2n2nnnc12 | 3.3
CCOC(=O)C1=NN(C(=O)Cc2ccccc2)C(O)(c2ccc(Cl)cc2)C1 (configuration not stated) | 15.7
Cc1ccc(COc2ccsc2C(=O)O)cc1 | 17.9
COc1cc(/C=N/NC(=O)c2cc(C)oc2C)cc(OC)c1OC | 3.6
C=CCc1cccc2ccc(=O)oc12 | 10.4
COc1cc(/C=N/NC(=O)CSc2ccccn2)ccc1O | 19.7
CN1CCN(NC(=O)c2ccc(Br)s2)CC1 | 21.4
N#C/C(=C\c1cccs1)C(=O)c1ccccc1Cl | 20.1
O=C(c1ccccc1)c1c(O)nc(-c2ccccc2)n(-c2ccccc2)c1=O | 18.9
CC1=CC(c2ccccc2)n2nc(NC(=O)CCC(=O)O)nc2N1 (configuration not stated) | 17.5
CC(C)(C)c1nnc(NC(=O)CCn2cnc3ccccc3c2=O)s1 | 4.7
COc1ccc(/C(C)=N/OCC(=O)N2CC3(C)CC2CC(C)(C)C3)cc1 (configuration not stated) | 21.4
O=C(COc1cccnc1[N+](=O)[O-])NCc1ccc2c(c1)OCO2 | 8.4
Cc1ccc(/C=C/c2nc3ccccc3c(=O)n2CCc2ccccc2)cc1 | 3.5
COc1ccc(C2NC(=S)NC(C)=C2C(=O)N2CCOCC2)cc1 (configuration not stated) | 7.2
CNC(=S)NNC(=O)c1ccccc1Cl | 20.6
Oc1ccc(CN2CCCCC2)c2cccnc12 | 14.4
Cc1cc(C(=O)OCC(=O)NC(C)C)c2ccccc2n1 | 25.5
CN(c1ccc(F)cc1)S(=O)(=O)c1ccc(Cl)c(C(=O)OCC(=O)NCc2ccco2)c1 | 15.3
CC(=O)Nc1cc(NC(C)=O)c(N=Nc2ccccc2)cc1C | 1.7
CC(C)Cc1ccc(/C=C/C(=O)N2CCCCC2)cc1 | 14.8
COc1ccc(-c2cc(C(=O)Nc3ccc(S(=O)(=O)Nc4onc(C)c4C)cc3)c3ccccc3n2)cc1OC | 2.9

# Next section:
SMILES | Calb biofilm kill
CCOc1ccc(C(=O)Nc2ccc(C(F)(F)F)n(C)c2=O)cc1 | 19.2
CC(C)NC(=O)C1CCN(C2CCN(Cc3cn[nH]c3-c3ccccc3)CC2)CC1 | 8.4
Nc1nc(-c2ccc(-c3ccccc3)cc2)cs1 | 10.4
CCOc1ccc(N2C(=O)C3Sc4[nH]c(=O)sc4C(c4ccc(OC)c(OC)c4)C3C2=O)cc1 (configuration not stated) | 30.4
CCOc1ccc(N(CC(=O)NC(C(C)C)C(C)C)S(=O)(=O)c2ccc(OC)c(OC)c2)cc1 | 6.3
CCC(CC)c1nnc(NC(=O)c2cc(C(=O)OC)cc([N+](=O)[O-])c2)s1 | 8.9
CCCNC(=S)N1CCC(C(=O)c2ccc(OC)cc2)CC1 | 5.8
CN1CCN(c2ccccc2NC(=O)c2ccccc2F)CC1 | -0.1
COc1cc(CN2CCNC(=O)C2CC(=O)N2CCc3ccccc3C2)cc(OC)c1 (configuration not stated) | 5.7
CCc1ccccc1NC(=S)N1N=CCC1c1ccccc1 (configuration not stated) | 12.7
COCC(=O)OCC(=O)c1cc(C)n(-c2ccc(Br)cc2)c1C | 7.7
CN1CCN(CC(=O)N2N=C(c3cccs3)CC2c2ccco2)CC1 (configuration not stated) | 12.5
C/C(Cl)=C\Cn1c(O)c(N=NC(N)=S)c2cc(Br)ccc21 | 0.6
Cc1ccc(Nc2nc(NCC3CCCO3)nc(N)c2[N+](=O)[O-])cc1C (configuration not stated) | 6.6
CCN(CC)C(=O)c1sc(N2C(=O)Nc3ccccc3N2O)c(C(=O)OC)c1C | 13.6
Cc1nc(Cc2ccc(OC(C)C)cc2)[nH]c(=O)c1CC(=O)O | 11.9
Cc1nc(C(F)(F)F)c(C(=O)N/N=C(\N)c2cccnc2)s1 | 11.3
Cc1ccccc1-n1cc(CNC(=O)CCc2nnc(CCc3ccccc3)o2)cn1 | 50.5
CCOc1ccccc1CN1CCN(Cc2ccc(C)o2)CC1CCO (configuration not stated) | 21.3
O=C(NN1C(=O)C2C3CCC(O3)C2C1=O)c1ccc(Cl)cc1 (configuration not stated) | 6.5
O=c1c(Cc2ccc(Cl)cc2)c(O)ccn1Cc1ccncc1 | 21.1
N#Cc1cnn(-c2ccc(F)cc2)c1N | 1.9
CCOc1ccc(S(=O)(=O)N2CCN(S(=O)(=O)c3ccc(OCC)cc3)C(C)C2)cc1 (configuration not stated) | 7.5
Cc1nn(CCN)c(C)c1Cl | 11.1
CCC(=O)Nc1cccc(-c2cn3cccc(C)c3n2)c1 | 16.4
Cn1c(N)c(N=O)c(=O)n(C)c1=O | 20.8
CCOc1ccc(Br)cc1C(=O)N/N=C/c1ccc([N+](=O)[O-])cc1 | 18.8
COc1ccc(C(Cl)=C(c2ccc(OC)cc2)c2ccc(OC)cc2)cc1 | 9.8
OCCC1CN(Cc2ccc3c(c2)CCO3)CCN1Cc1ccc(F)cc1 (configuration not stated) | 15.9
O=C(NCC1CC1)c1ccc(Oc2cc(Cl)cc(Cl)c2)o1 | 18.7
COc1ccc(/C=C/C(=O)Nc2sc(Cc3ccccc3)c(C)c2C(N)=O)cc1 | 10.4
Cc1cnc(C(=O)Nc2ccc(C(C)C)cc2)cn1 | 13.1
O=C(O)CSc1c(-c2cccs2)[nH]c2ccccc12 | 12.6
Cc1ccc(/C=N/N=C2\SCC(=O)N2CC2CC2)cc1 | 7.6
COc1cccc2cc(/C(C)=N/NC(=O)c3ccco3)oc12 | 6.7
Cc1cccc(N(C(=O)Cn2nnc(-c3ccccc3F)n2)C(C(=O)NC(C)(C)C)c2ccncc2)c1 (configuration not stated) | 7.3
COc1ccccc1NC(=O)CN1CCN(C(=O)c2ccco2)CC1 | 9.0
NC1=NC(=O)/C(=C/c2cn(CCC(=O)O)nc2-c2ccc(Cl)cc2)S1 | 6.9
COCCNCC(O)CON=C1c2ccccc2-c2ccccc21 (configuration not stated) | 12.6
CC(C)=C1SC(N2CCN(c3cccc(Cl)c3)CC2)=NC1=O | 3.4

# Continued; the last 2 above are carried over.
SMILES | Calb biofilm kill
COCCNCC(O)CON=C1c2ccccc2-c2ccccc21 (configuration not stated) | 12.6
CC(C)=C1SC(N2CCN(c3cccc(Cl)c3)CC2)=NC1=O | 3.4
CCC1=Nc2cc(C(=O)O)ccc2Sc2ccc(Cl)cc21 | 9.2
N#CCOC(=O)c1c2c(nc3ccccc13)CCC2 | 0.4
NC1=NC[C@@H](Cc2ccc(O)cc2)N1CCc1cccc2ccccc12 | 11.7
CCCCOc1ccc(Cc2n[nH]c(=S)n2N)cc1 | 16.8
CCCCN1C(=O)CC(Sc2ncccc2C(=O)O)C1=O (configuration not stated) | 12.0
C=CCOc1ccc(CNc2ccc(NC(=O)CCC)cc2)cc1OCC | 17.9
CN(C)NC(=S)NC1(C)CCS(=O)(=O)C1 (configuration not stated) | 12.4
Cc1cccc2nc(-c3ccccc3)nc(N3CCC(O)(c4ccc(Cl)cc4)CC3)c12 | 15.1
CCOC(=O)/C(C#N)=C/c1cc2ccccc2nc1N1CCOCC1 | -0.8
O=C(Oc1ccc2c(c1)O/C(=C\c1ccncc1)C2=O)c1ccccc1 | 9.1
Cc1ccc(C)c(OCC(=O)N/N=C/c2c(C)nn(-c3ccccc3)c2Cl)c1C | 8.8
CCOc1ccc2nc(SCC(=O)Nc3nonc3C)[nH]c2c1 | 5.5
O=C(CCc1ccc(S(=O)(=O)N2CCOCC2)cc1)N/N=C/c1cccc(O)c1 | 9.6
O=C(c1cccnc1)C1Cc2ccccc2C1=O (configuration not stated) | 10.1
O=C(N/C(=C/c1cccnc1)C(=O)N1CCOCC1)c1ccccc1Br | 10.4
Cc1ccc(Nc2cc(C)nc(NCc3ccccc3)n2)cc1 | 8.5
O=C(c1ccc(F)cc1)c1ccc(CN2C(=O)c3ccccc3C2=O)o1 | 17.9
CC(/C=N\N1CCN(Cc2ccc(C)cc2)CC1)=C\c1ccccc1 | 13.6
Cc1ccc(C)c(/C=C/C(=O)c2ccccc(=O)c2O)c1 | 8.6
CSC1=NC(C)(C)C=C(/C=C/c2c(Cl)cccc2Cl)N1 | 12.6

# Retrieved by structure from above, 3 records:
SMILES | Calb biofilm kill
CC(=O)Nc1cc(NC(C)=O)c(N=Nc2ccccc2)cc1C | 1.7
N#CCc1nc(-c2cc3ccccc3oc2=O)cs1 | 5.8
Cc1ccc(Nc2nc(NCC3CCCO3)nc(N)c2[N+](=O)[O-])cc1C (configuration not stated) | 6.6

# (list continues)
SMILES | Calb biofilm kill
Cc1cc(C)c2nc(NNC(=O)c3cc(=O)c4ccccc4o3)sc2c1 | 18.5
CCOCCCNC(=O)C(c1ccc(Cl)cc1)N(Cc1cccs1)C(=O)CNC(C)=O (configuration not stated) | 17.6
CN(C1CCCCC1)S(=O)(=O)c1cccc(C#N)c1 | 11.2
c1ccc(CN=C2NN=C(c3cc4ccccc4o3)CS2)cc1 | 8.5
CC1SCC(=O)N(CC(=O)Nc2ccc3c(c2)OCO3)C1=O (configuration not stated) | 18.4
CC1=C(C)C(OCCCl)N(c2cc(O)c(Cl)cc2F)C1=O (configuration not stated) | 3.4
CN(C(=O)CSc1nc2ccc(Br)cc2c(=O)n1Cc1ccco1)C1CCS(=O)(=O)C1 (configuration not stated) | 9.3
CCCCc1ccc(NC(=S)Nc2cccnc2)cc1 | 12.3
Cc1ccc(S(=O)(=O)NC(=O)Nc2ccccc2)cc1 | 16.3
Cc1ccc(N2CC(C(=O)Nc3ccc(S(=O)(=O)Nc4nccs4)cc3)CC2=O)cc1 (configuration not stated) | 9.5
CC(C)n1cnc2c(NCc3ccc(S(N)(=O)=O)cc3)nc(NCc3ccc(S(N)(=O)=O)cc3)nc21 | 15.2
O=C(O)C1=C[C@H](c2csc3ccccc23)C[C@H](OCCCCO)O1 | 10.3
Clc1ccccc1/C=C/C=N/Nc1nc(N2CCOCC2)nc(N2CCOCC2)n1 | 2.7
O=C(NCCCN1CCOCC1)C(=O)N/N=C/c1ccccc1 | 17.5
